Choline anaer gr: growth inhibitors of anaerobic choline-fed gram-negatives, minimal medium, absorbance; Gram-negative bacterium anaerobic choline minimal medium; stronger effect = lower value; many inactives read as strong as hits in the columns shown; 55,000 tested, 0.2% active; calls only;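 active = growth z-score on choline under -2 at 7 or 20 h with little or no fall on glycerol, limits in tiers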;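 note: stock transfer was 300 nL into about 50 µL; the organism is E. coli; final concentration not given here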
Choline anaer gr early: second read-out of Choline anaer gr, no call of its own (marks repeat the call); z-score; measured here: choline growth z-score, timepoint 1;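 score of optical density at 7 h as mean of two plates; lower means less growth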
Numbers without * were called inactive; i = inactive; & = joins results of further samples. Not all compounds are listed; the hit share may differ from the screen's.

(1) CCCN(CCC)C1CCc2ccc(O)cc2C1 (centres undefined)
(2) CCCC(C)C1(CC)C(=O)NC(=O)NC1=O (centres undefined)
(3) CC[C@@H](CO)NC(=O)[C@@H]1C=C2c3cccc4c3c(cn4C)C[C@H]2N(C)C1
(4) C[C@]12CC[C@@H](O)C[C@@H]1CC[C@@H]1[C@@H]2CC[C@]2(C)C(=O)CC[C@@H]12
(5) CCCCC(C#N)(Cn1cncn1)c1ccc(Cl)cc1 (centres undefined)
(6) CN1C(=O)COc2c(C(=O)NC3CN4CCC3CC4)cc(Cl)cc21 (centres undefined)
(7) C[N+]1(C)C2CC[C@H]1CC(OC(=O)C(CO)c1ccccc1)C2 (some centres undefined)
(8) NN=C(N)N

assay / entry | 1 | 2 | 3 | 4 | 5 | 6 | 7 | 8
Choline anaer gr | i | i | i | i | i | i | i | i
Choline anaer gr early | 0.5&0.56 | 0.17 | -0.55&0.39 | -0.1 | 0.54 | 0.55 | 0.53 | 0.59&0.6&0.29&0.73

(9) NC(=O)c1cc(N2CC2)c([N+](=O)[O-])cc1[N+](=O)[O-]
(10) COc1cccc(C2N3CCCN23)c1OC (centres undefined)
(11) O=C1[C@@H]2CCCN2[C@@H](c2ccccc2F)N1c1ccccn1
(12) O=C(N[C@H]1CN2CCC1CC2)c1ccc(Cl)cc1
(13) CCC1c2cccn2-c2ccccc2CN1C(=O)NC1CCCC1 (centres undefined)
(14) CCOC(=O)c1cncn1[C@H](C)c1ccccc1
(15) COC(=O)[C@@]1(O)CC2OC1(C)n1c3ccccc3c3c4c(c5c6ccccc6n2c5c31)C(=O)NC4 (some centres undefined)
(16) CC(C)=CCOc1c2occc2cc2ccc(=O)oc12

assay / entry | 9 | 10 | 11 | 12 | 13 | 14 | 15 | 16
Choline anaer gr | i | i | i | i | i | i | i | i
Choline anaer gr early | 0.62 | -1.9 | 0.02 | -0.04&0.34 | 1.9 | 0.3 | 0.42 | 0.12

Compounds listed so far with nitrogen in an aromatic ring, in the order listed:
(3) CC[C@@H](CO)NC(=O)[C@@H]1C=C2c3cccc4c3c(cn4C)C[C@H]2N(C)C1
(5) CCCCC(C#N)(Cn1cncn1)c1ccc(Cl)cc1 (centres undefined)
(11) O=C1[C@@H]2CCCN2[C@@H](c2ccccc2F)N1c1ccccn1
(13) CCC1c2cccn2-c2ccccc2CN1C(=O)NC1CCCC1 (centres undefined)
(14) CCOC(=O)c1cncn1[C@H](C)c1ccccc1
(15) COC(=O)[C@@]1(O)CC2OC1(C)n1c3ccccc3c3c4c(c5c6ccccc6n2c5c31)C(=O)NC4 (some centres undefined)

assay / entry | 3 | 5 | 11 | 13 | 14 | 15
Choline anaer gr | i | i | i | i | i | i
Choline anaer gr early | -0.55&0.39 | 0.54 | 0.02 | 1.9 | 0.3 | 0.42

(cont.)
(17) N[C@@H](Cn1oc(=O)[nH]c1=O)C(=O)O
(18) COC(=O)c1ccc(C(=O)OC)c(NC(=O)c2cccn(Cc3cccc(F)c3)c2=O)c1
(19) CN1CC=C(c2noc(CCC(=O)NCCN3CCN(c4ccccc4F)CC3)n2)CC1
(20) c1ccc2c(c1)sc1ccccc12
(21) O=C1C2CCN(CC2)C1(CO)CO
(22) CCOC(=O)CN1C(=O)CC(C[C@@H](O)C2C[C@@H](C)C[C@H](C)C2=O)CC1=O (some centres undefined)
(23) COc1ccc(C(=O)c2c(C)n(CCN3CCOCC3)c3cc(I)ccc23)cc1
(24) COc1ccc2[nH]cc(CCN)c2c1

assay / entry | 17 | 18 | 19 | 20 | 21 | 22 | 23 | 24
Choline anaer gr | i | i | i | i | i | i | i | i
Choline anaer gr early | -0.79 | 0.59 | -0.54 | 0.16 | -2.5&-2.9 | -3 | -0.49 | 1.1

(25) CCCN(C/C=C/I)C1CCc2ccc(O)cc2C1 (centres undefined)
(26) N#CC1=CN(c2ccc(F)cc2)c2ccc(F)cc2S1(=O)=O
(27) O=C1[C@@H]2CCCN2[C@@H](c2cccnc2)N1c1nccs1
(28) CC(C)(N)Cc1ccccc1
(29) NC(=NCc1ccc(Cl)cc1)SCCCc1cnc[nH]1
(30) CCCCCC[C@H]1C(=O)O[C@H](C)C(NC(=O)c2cccc(NC=O)c2O)C(=O)O[C@@H](C)[C@@H]1OC(=O)CC(C)C (some centres undefined)
(31) Clc1ccc(N2CC3CCC(C2)N3)nn1
(32) Cc1ccc2[nH]c(C)c(C(O)CN3CCC(C)CC3)c2c1 (centres undefined)

assay / entry | 25 | 26 | 27 | 28 | 29 | 30 | 31 | 32
Choline anaer gr | i | i | i | i | i | i | i | i
Choline anaer gr early | 0.05 | -0.05 | 0.51 | 0.63 | 0.82 | 0.7 | 0.18 | -1.5

(33) CC(C)(Cc1c[nH]c2ccc(Cl)cc12)NCCOc1ccccc1OCC1CC1
(34) NC(N)=Nc1ccc2[nH]c3c(c2c1)C[C@@]1(O)[C@H]2Cc4ccc(O)c5c4[C@@]1(CCN2CC1CC1)[C@H]3O5
(35) Cc1nn(-c2ccccc2)c2c1C(c1ccc(Cl)cc1)SCC(=O)N2 (centres undefined)
(36) Cc1nc2nc(-c3ccccc3)nn2c(C)c1CC(=O)N1CCN(C)CC1
(37) CCN(CC)C(=O)c1ccc2c(c1)N(CC(=O)NCc1ccc(C(C)C)cc1)C(=O)C1CCCCN21 (centres undefined)
(38) O=C(Nc1ccc2c(c1)OCCO2)c1cccn(Cc2c(F)cccc2Cl)c1=O
(39) C(#CCN1CCCC1)CN1CCCC1
(40) O=C(Cc1c(Sc2ccc(F)cc2)[nH]c2ccccc12)N1CCN(Cc2ccccc2)CC1

assay / entry | 33 | 34 | 35 | 36 | 37 | 38 | 39 | 40
Choline anaer gr | i | i | i | i | i | i | i | i
Choline anaer gr early | -4.7 | -4.1 | -0.46 | 0.37 | -0.03 | -0.03 | 0 | -0.67

(41) COc1cccc(S(=O)(=O)N2CCC3(C2)C(=O)N(C)c2ccc(OC)cc23)c1 (centres undefined)
(42) CC(C)[N+](C)(CCC(C(N)=O)(c1ccccc1)c1ccccc1)C(C)C
(43) C=C1[C@@H](O)[C@@H]2O[C@@]3(CCC2O[C@@H]1[C@@H](O)C[C@H](C)C1O[C@@]2(CCCCO2)CC[C@H]1C)CC[C@H](/C=C/[C@@H](C)[C@@H]1CC(C)=C[C@@]2(O[C@H](C[C@@](C)(O)C(=O)O)CC[C@H]2O)O1)O3 (some centres undefined)
(44) COc1ccc(C2=NCC(=O)N(C(C)C(=O)Nc3ccc(F)cc3)c3sc4c(c32)CCCC4)cc1 (centres undefined)
(45) Cc1ccc(C[N+](C)(C)C)o1
(46) Cc1cccc(CN2CC=C(c3noc(CCC(=O)Nc4ccc(F)cc4)n3)CC2)c1
(47) O=C(Nc1nccs1)c1cccn(Cc2ccccc2Cl)c1=O
(48) O=C1CSC(c2ccccc2)c2c(n(C3CCCC3)[nH]c2=O)N1 (centres undefined)

assay / entry | 41 | 42 | 43 | 44 | 45 | 46 | 47 | 48
Choline anaer gr | i | i | i | i | i | i | i | i
Choline anaer gr early | 0.48 | 0.65 | 0.55 | 0.79 | 1.1 | -0.9 | 0.85 | 1.2

(49) C=CCN1CC[C@]2(C)c3cc(O)ccc3CC1[C@@H]2C
(50) COC(=O)[C@@H](N)CCCN=C(N)N[N+](=O)[O-]
(51) O=C(Cc1csc2nc(-c3ccc(Cl)cc3)cn12)N1CCN(Cc2ccccc2)CC1
(52) CCCCOc1ccc(C2SCC(=O)Nc3n[nH]c(C)c32)cc1OC (centres undefined)
(53) O=C1Nc2ccccc2C2(CCN(CCc3ccc(C(F)(F)F)cc3)CC2)O1
(54) NC(CP(=O)(O)O)C(=O)O (centres undefined)
(55) Cc1nc(N)sc1CCN
(56) C[N+]1(C)C2CCC1CC(OC(=O)c1c[nH]c3ccccc13)C2 (centres undefined)

assay / entry | 49 | 50 | 51 | 52 | 53 | 54 | 55 | 56
Choline anaer gr | i | i | i | i | i | i | i | i
Choline anaer gr early | -0.06 | -0.02&0.41 | 0.47 | 0.66 | -0.26 | 0.01 | -0.04 | -0.66

(57) CCOP(=S)(OCC)Oc1ccc2c(C)c(Cl)c(=O)oc2c1
(58) Cc1cc(C)cc(-n2c(=O)[nH]c3ccccc3c2=O)c1
(59) CCCCCCCCCCCCCCCCOC[C@H](COP(=O)([O-])OCC[N+](C)(C)C)OC(C)=O
(60) O=C(O)CC[N+](=O)[O-]
(61) CCOC(=O)Cc1ccc(NC(=O)N2Cc3ccccc3-n3cccc3C2C(C)C)cc1 (centres undefined)
(62) Fc1cccc(C2NCCc3[nH]cnc32)c1F (centres undefined)
(63) O=C(Cc1ccccc1)N1CCN(Cc2cc(=O)n3nc(-c4ccccc4F)sc3n2)CC1
(64) CCCCCOc1c(OC)ccc2cc(C(=O)NCc3ccc4c(c3)OCO4)c(=O)[nH]c12

assay / entry | 57 | 58 | 59 | 60 | 61 | 62 | 63 | 64
Choline anaer gr | i | i | i | i | i | i | i | i
Choline anaer gr early | 0.6 | 0.89 | -0.72&0.81 | 0.46 | 0.52 | 1.2 | -0.35 | 0.98

(65) COc1ccc(-n2nc(C(F)(F)F)cc2-c2ccc(Cl)cc2)cc1
(66) C[C@]12NC(Cc3ccccc31)c1ccccc12
(67) CC(C)Oc1ccc(C2N3CCCN23)cc1 (centres undefined)
(68) Clc1ccc(C2NCCc3[nH]cnc32)cc1 (centres undefined)
(69) CCC(=O)N1N=C2C3CCN(CC3)[C@@H]2[C@@H]1c1ccccc1C
(70) O=C(O)C(Cl)Cl
(71) Ic1cncc(OC[C@@H]2CCN2)c1
(72) OC1CCCCC1N1CCC(c2ccccc2)CC1 (centres undefined)

assay / entry | 65 | 66 | 67 | 68 | 69 | 70 | 71 | 72
Choline anaer gr | i | i | i | i | i | i | i | i
Choline anaer gr early | 0.94 | 0.61 | -1.6 | 0.63 | 0.37 | 0.46&0.21 | 1 | 0.23&-0.22

(73) O=C(NC1CCCC1)c1cc2cccnc2n(Cc2ccccc2)c1=O
(74) Cc1[nH]nc2c1C(c1cc(F)ccc1F)SCC(=O)N2 (centres undefined)
(75) NC1(c2nnnn2-c2ccccc2)CCCCC1
(76) C/C=C(/C)C(=O)O[C@H]1C(C)=C2[C@H]([C@@H]1OC(=O)CCCCCCC)[C@@](C)(OC(C)=O)C[C@H](OC(=O)CCC)[C@@]1(O)[C@H]2OC(=O)[C@@]1(C)O
(77) C[N+]1(C)C2CC(OC(=O)[C@H](CO)c3ccccc3)CC1C1OC12 (some centres undefined)
(78) Cc1nccc2c1[nH]c1ccccc12
(79) O=C(COc1ccccc1)N1CCN(Cc2noc(-c3ccccc3)n2)CC1
(80) Cc1ccc(C(=O)Oc2cccc3cccnc23)cc1S(=O)(=O)N1CCCCC1
(81) NC(=O)CN1CCCC1=O

assay / entry | 73 | 74 | 75 | 76 | 77 | 78 | 79 | 80 | 81
Choline anaer gr | i | i | i | i | i | i | i | i | i
Choline anaer gr early | 0.62 | 1.5 | -0.98 | 1.3&1 | 0.61&0.21 | -0.37&0.28 | -0.17 | -0.34 | 0.18&1.2

Five entries picked at random from the list so far, as already listed:
(77) C[N+]1(C)C2CC(OC(=O)[C@H](CO)c3ccccc3)CC1C1OC12 (some centres undefined)
(80) Cc1ccc(C(=O)Oc2cccc3cccnc23)cc1S(=O)(=O)N1CCCCC1
(73) O=C(NC1CCCC1)c1cc2cccnc2n(Cc2ccccc2)c1=O
(81) NC(=O)CN1CCCC1=O
(75) NC1(c2nnnn2-c2ccccc2)CCCCC1

assay / entry | 77 | 80 | 73 | 81 | 75
Choline anaer gr | i | i | i | i | i
Choline anaer gr early | 0.61&0.21 | -0.34 | 0.62 | 0.18&1.2 | -0.98

Some of these compounds in order of length of the SMILES, ascending.
(81) NC(=O)CN1CCCC1=O
(73) O=C(NC1CCCC1)c1cc2cccnc2n(Cc2ccccc2)c1=O
(79) O=C(COc1ccccc1)N1CCN(Cc2noc(-c3ccccc3)n2)CC1
(80) Cc1ccc(C(=O)Oc2cccc3cccnc23)cc1S(=O)(=O)N1CCCCC1

assay / entry | 81 | 73 | 79 | 80
Choline anaer gr | i | i | i | i
Choline anaer gr early | 0.18&1.2 | 0.62 | -0.17 | -0.34

From PubChem BioAssay
